Sa RN4220 lethal – kills Staphylococcus aureus RN4220 | inhibition, % (concentration not given with the values) | S. aureus RN4220 growth, OD600, 16 h | 330,000 compounds, 0.33% hits | AID 1259311;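 active = z-score of -3 or lower and OD600 up to 0.18 on both plates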;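 also: plate controls were untreated cells for no effect and reference antibiotic for full effect; stock transfer was 100 nL into about 80 µL; one replicate is shown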
Mtb hypoxia rep – Mtb hypoxia fluorescent reporter inhibition; 300,000 compounds, 0.1% hits; M. tuberculosis hypoxia-regulated fluorescent reporter, fluorescence; fluorescence inhibition, % (no concentration beside the values);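 active = 35 to 45% if threefold the growth effect, above 45% if 1.5-fold the growth effect; inactive = the rest, general growth blockers included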;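 also: wells of about 50 µL received 100 nL stock; 0% = vehicle wells and 100% = reference inhibitor wells; whole bacteria with a GFP reporter of the hypoxia response; strong numbers were not always called active; many hits fall short of the cut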
PrP 5UTR inh – suppresses PrP 5' UTR mRNA reporter expression; cell-based PrP 5' UTR mRNA reporter, plate reader; inhibition, % (no concentration beside the values); 340,000 compounds, 0.35% hits; AID 488862;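 active = every replicate at 50% or more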;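 also: 0 = median of the neutral control wells; tested in H4 reporter cells; numbers are from one replicate; inactives centre near -14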
BJeLR viability – BJeLR cell viability loss; BJeLR (HRASV12) viability, CellTiter-Glo ATP luminescence, 48 h; reference of the scale not given here; inhibition, % (no concentration beside the values); 300,000 compounds, 0.17% hits; AID 1554;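 active = replicate mean above 50%; inconclusive = above 50% but judged a plate artefact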;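 also: 50 nL library stock added to about 25 µL; numbers are from one replicate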
ugtP null kill – growth inhibition of S. aureus ugtP deletion strain. S. aureus RN4220 ugtP deletion, OD600 growth, 16 h; some inactives read as strong as hits. growth inhibition, % (test concentration not listed). 330,000 compounds, 0.54% hits. AID 1259309;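 active = z-score under -3 and OD600 up to 0.15 on both plates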;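 also: plate controls were untreated wells for no effect and antibiotic for full effect; wells of about 80 µL received 100 nL stock; the first replicate is given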
Bead autofluor – counter-screen for toxin protease inhibitors: compound fluorescence; compound autofluorescence counterscreen, microsphere flow cytometry; hits give high values; fluorescence intensity (no concentration beside the values); 360,000 compounds, 3.1% hits; AID 624483;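 active = at least 3 SD above the mean of all compounds, about 16000 in these data; inconclusive = too few beads counted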;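 also: 100 nL of 1 mM stock went into each well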
Mtb hypoxia rep growth – second read-out of Mtb hypoxia rep, no call of its own (marks repeat the call); growth inhibition, %; measured here: M. tuberculosis growth (absorbance);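 0% = vehicle and 100% = reference antibiotic; read after six days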
Starred values were filed as active, the others as inactive; ? = inconclusive; nt = no result given. Rows were taken by chance (roughly 4% active in at least one column).

SMILES | Sa RN4220 lethal | Mtb hypoxia rep | Mtb hypoxia rep growth | PrP 5UTR inh | BJeLR viability | ugtP null kill | Bead autofluor
CC(C)OC(=O)Nc1ccc2c(c1)N(C(=O)CCN1CCN(CCO)CC1)c1ccccc1CC2 | 3.8 | 12.2 | 11.3 | -21.6 | 8.4 | 10.2 | 3495
Nc1nc(NC(=O)c2ccc(F)cc2)ns1 | -1.8 | -5.7 | 3.5 | -10.2 | 7.1 | -3.8 | 3863
COc1cccc(CNC(=O)CCCn2c(=S)[nH]c3cc4c(cc3c2=O)OCO4)c1 | 4.9 | -6.2 | 1.0 | -11.4 | 1.7 | -8.8 | 5427
COC(=O)c1cccc(NC(=O)Nc2ccc(Cl)cc2Cl)c1 | -3.7 | 14.3 | 8.5 | -2.5 | 2.0 | -18.5 | 3799
Cc1cc(C)cc(C(=O)Nc2nnc(SCC(=O)N3CCCc4ccccc43)s2)c1 | 2.1 | -10.2 | 4.3 | -18.4 | -16.0 | -24.1 | 3176
CO/N=C(\c1ccccc1)c1cccnc1 | nt | nt | nt | -7.8 | 8.5 | nt | 4201
CSc1ccccc1NC(=O)Cc1ccccc1 | 5.9 | 7.7 | -4.0 | -17.1 | -1.0 | 4.9 | 3828
CCCC1(CCC)C(=O)NC(=Nc2ccc(C)cc2)NC1=O | -3.0 | -11.1 | 3.6 | nt | 6.7 | 6.9 | nt
Cc1ccc(Nc2nc(N)c([N+](=O)[O-])c(NCc3ccco3)n2)cc1C | -7.3 | 0.5 | 2.9 | -19.1 | -11.8 | 15.3 | 9582
CCc1ccc(NC(=O)CCC(=O)Nc2nnc(C(C)C)s2)cc1 | 0.4 | 3.9 | 0.9 | -18.7 | -5.7 | 2.2 | 5057
CCCc1cc(=O)[nH]c(SCC(=O)Nc2ccccc2C#N)n1 | 4.6 | -12.2 | -4.5 | -3.8 | 0.2 | -0.6 | ?
NNC(=O)COc1ccc(C2SCCS2)cc1 | 19.2 | 15.3 | 4.8 | -17.2 | -12.0 | 13.5 | 3375
Cc1ccccc1C(=O)NNC(=O)c1ccncc1 | 5.0 | 4.5 | -1.5 | -21.1 | 8.6 | 7.3 | 3796
COc1cccc(/C=N/NC(=O)c2cccc(N3CCCC3=O)c2)c1 | nt | nt | nt | -39.8 | 6.1 | nt | 3964
COc1ccccc1NC(=O)Nc1ccccc1SC | 1.8 | -7.6 | 2.2 | -39.0 | 3.3 | -2.5 | 2046
CCOc1cc(C(=O)NN=Cc2ccsc2)cc(OCC)c1OCC | 3.7 | 1.1 | 0.4 | nt | nt | 9.5 | nt
CCOC(=O)C1(CCc2ccccc2)CCN(C(C)CSC)CC1 (configuration not stated) | nt | nt | nt | -33.9 | -21.0 | nt | 4003
COc1ccc(CCNC(=O)c2nonc2N)cc1 | 4.2 | 7.9 | 4.5 | -34.9 | 0.5 | 7.9 | 6706
Cc1ccc(NC(=O)CSc2ccc(-c3ccco3)nn2)cc1 | 4.1 | 2.7 | 0.2 | -17.2 | -2.3 | 11.1 | 5272
COc1ccc2c(c1)C1C(CO2)C(c2ccccc2)[C@]2(C)C(=O)NCC(=O)N12 (some centres not stated) | 8.8 | 16.7 | 9.6 | nt | nt | 8.0 | nt
COC(=O)C1=C(c2ccc(S(C)(=O)=O)cc2)C[C@@H]2CC[C@H]1N2C(=O)N1CCC(O)CC1 | -9.5 | 5.4 | 3.8 | -25.9 | -9.1 | -1.6 | 3052
COc1cc(C(=O)N2CCC(N3CCCCCC3)CC2)cc(OC)c1OC | 5.2 | nt | nt | 5.0 | -1.0 | -4.1 | 2620
CSc1ccc(CNC(=O)C2CCC(=O)N(Cc3cccc(F)c3)C2)cc1 (configuration not stated) | -4.1 | 15.0 | 0.0 | -10.1 | -3.6 | 19.3 | 5528
COCCCn1c(SCC(=O)Nc2sc3c(c2C#N)CCCC3)nnc1-c1ccncc1 | 23.9 | 22.0 | -27.6 | -1.4 | 2.1 | 17.9 | 2366
CCOc1cc(C=O)cc(Br)c1OCC(=O)NCCc1ccccc1 | 9.5 | 2.2 | 0.9 | -5.7 | -23.6 | 17.9 | 2631
CCOc1ccccc1NC(=O)c1cccc(NC(=O)c2ccco2)c1 | 4.3 | nt | nt | 31.0 | 23.6 | -11.2 | 4560
CN1CCC(N(C)S(=O)(=O)c2ccc(NC(=O)COc3ccc(Cl)cc3)cc2)CC1 | -1.6 | 0.5 | 2.5 | -11.2 | nt | 0.9 | 3939
Cc1ccc2c(c1)c1c(n2C)-c2[nH]ncc2CC1 | 36.7 | 3.6 | 11.5 | -27.4 | 4.3 | 57.4 | 10375
CCc1cccc2c(SC(C)C(=O)NCC3CCCO3)nc(-c3ccccc3)nc12 (configuration not stated) | 7.4 | 2.5 | 1.8 | -24.8 | -10.9 | -17.1 | 9635
Cc1cc(C)c(C)c(OCCCCN(C)Cc2ccccc2)c1 | 0.9 | 11.8 | 7.0 | -21.3 | -3.7 | 6.1 | 3978
COc1ccc(NC(=O)c2ccc3c(c2)C(=O)N(CC2CCCO2)C3=O)cc1O (configuration not stated) | 1.7 | 2.1 | 3.9 | -16.9 | -7.6 | 3.2 | 5606
COCCCN(C(=O)Cn1ncc2c(=O)oc3ccc(C)cc3c21)C(C)c1ccncc1 (configuration not stated) | -0.7 | -0.6 | 1.0 | -5.3 | -3.2 | -1.2 | 6977
Cc1n[nH]c(C)c1CCNC(=O)C1CCC(=O)N(CCc2cccc(F)c2)C1 (configuration not stated) | 4.3 | -1.7 | -3.6 | 6.2 | -6.4 | 6.6 | ?
COC(=O)C(NC(=O)CCc1nnc2ccc(N3CCCCC3)nn12)C(C)C (configuration not stated) | 4.2 | 7.7 | 9.4 | -18.6 | 0.2 | 8.5 | 3834
c1ccc(-c2ccccc2OCCOCCN2CCOCC2)cc1 | 5.2 | 17.4 | 10.4 | -24.6 | -8.3 | 11.1 | 3706
CCNC(=S)NNC(=O)c1csc(C(C)C)c1 | 2.1 | 8.6 | 16.7 | -44.6 | 3.3 | 1.6 | 3825
CC(C)c1ccc(S(=O)(=O)N2CCN(C(=O)C3CC3C)CC2)cc1 (configuration not stated) | 3.1 | -1.3 | -2.0 | -17.4 | -3.7 | -2.9 | 4418
OCCNCc1cccc(Br)c1 | 5.1 | 3.6 | 7.2 | -54.0 | 4.4 | 10.6 | 4275
COc1ccc(CN(C2CCCC2)S(=O)(=O)c2ccc(-n3cnnn3)c(OC)c2)cc1OC | 8.1 | 3.5 | 6.5 | -8.6 | -0.8 | 14.6 | 7314
CC(OC(=O)CNC(=O)C1CCCCC1)C(=O)NCc1ccccc1 (configuration not stated) | 2.1 | 11.7 | 3.8 | -15.3 | nt | 0.6 | 3461
CC1(C)CC(=O)/C(=C\c2cccc([N+](=O)[O-])c2)C(C)(C)N1 | 11.8 | 6.4 | 11.8 | 8.1 | -6.2 | 2.2 | 2387
CCOc1cc(C=NNc2ccc(C(=O)O)cc2)ccc1OC(=O)c1ccccc1C | -14.5 | 13.3 | 0.6 | nt | nt | 12.6 | nt
C/C(CC(=O)Nc1ccccc1C#N)=N\NC(=O)c1ccncc1 | nt | nt | nt | -7.3 | 4.5 | nt | 4556
O=C(CCC(=O)N1CCOc2ccccc21)N1CCOCC1 | -4.4 | 1.8 | 10.4 | -2.7 | -3.1 | -3.3 | 4716
CCOC(=O)C1CCN(C(=O)c2ccc(NC(=O)C3CCCO3)cc2)CC1 (configuration not stated) | 6.9 | 8.2 | 4.0 | -22.1 | -0.4 | 6.0 | 6901
O=C1Cc2cc(S(=O)(=O)N3CCN(c4ccccc4)CC3)ccc2N1 | 9.9 | 0.5 | 2.4 | -9.4 | -3.4 | 18.9 | 4355
Cc1cc(NC(=O)C(C)SCC(=O)OC(C)C(=O)Nc2ccc(F)cc2Cl)no1 (configuration not stated) | 1.0 | 2.9 | 6.4 | -8.6 | -8.8 | 5.5 | ?
O=C1CC(c2ccc(S(=O)(=O)N3CCCCC3)cc2)CN1 (configuration not stated) | 1.8 | 16.0 | 7.0 | 3.9 | -0.1 | -3.1 | 8147
CC1(C)CC(=O)C(C=NCCO)=C(O)C1 | 3.9 | nt | nt | 12.2 | -6.6 | 2.9 | 2866
CC(=O)Nc1ccc(C=NNc2ccc([N+](=O)[O-])cc2S(=O)(=O)Nc2ccccc2C(=O)O)cc1 | -4.6 | 9.8 | -0.3 | 6.2 | nt | 18.1 | 2794
CCOC(=O)NCc1ccc2[nH]c(C)cc2c1 | -8.7 | 7.4 | 7.1 | -3.0 | 3.2 | 7.7 | 3699
CN1C(=O)c2ccccc2N(C)C1c1ccc(F)cc1 (configuration not stated) | 4.7 | 12.0 | 5.1 | -10.6 | 4.0 | 9.6 | 3970
C=C(C)c1cccc(C(C)(C)NC(=O)Nc2nncs2)c1 | -1.4 | -8.0 | -0.8 | -27.7 | -1.8 | 6.3 | 5018
NCCc1ccc(S(=O)(=O)F)cc1 | 9.0 | -3.3 | 1.7 | -9.1 | nt | 1.0 | 5619
CC(C)(Oc1ccc(Cl)cc1)C(=O)NCc1ccncc1 | 4.0 | 10.0 | 5.7 | -49.7 | -6.4 | -2.8 | 20771*
CS(=O)(=O)c1cccc(C(=O)NCc2ccc(F)cc2)c1 | -15.8 | 9.8 | 10.8 | -15.3 | nt | 0.5 | 3179
COC(=O)Nc1ccc(S(=O)(=O)NNC(=O)c2c(O)c3ccccc3n(C)c2=O)cc1 | 7.6 | -2.2 | -1.3 | -11.7 | 1.3 | 7.1 | 5681
CSCC[C@H](NC(=O)c1ccc2c(c1)OCO2)c1nnc2ccccn12 | 5.8 | 3.4 | 0.1 | 5.3 | 3.4 | 10.5 | 4494
Cc1ccc(NS(=O)(=O)c2ccc(-c3coc(C)n3)cc2)c(C)c1 | 5.2 | 0.2 | 3.8 | -3.4 | 11.4 | -2.4 | 5348
CCCC(C)C(=O)Nc1nc(C)c(-c2csc(Nc3ccccc3OC)n2)s1 (configuration not stated) | -1.2 | 7.3 | 10.5 | 3.6 | -2.2 | 2.5 | 3898

(list continues)
SMILES | Sa RN4220 lethal | Mtb hypoxia rep | Mtb hypoxia rep growth | PrP 5UTR inh | BJeLR viability | ugtP null kill | Bead autofluor
Cc1csc(NC(=O)C(C)Oc2ccc(Br)cc2)n1 (configuration not stated) | -0.4 | 7.1 | 9.3 | -1.5 | 0.6 | 7.8 | 6853
COc1ccc(C2=NN(C(=O)CSc3nc4ccccc4s3)C(c3ccc(F)cc3)C2)cc1 (configuration not stated) | 2.8 | -11.8 | -13.3 | -38.4 | -7.2 | 1.6 | 2429
CN(Cc1ccccc1)S(=O)(=O)c1ccc2c(c1)n(C)c(=O)c(=O)n2C | 1.1 | 2.2 | -5.9 | -20.2 | 6.4 | 5.1 | 4841
CCCCn1c(SCC(=O)Nc2nccs2)nc2ccccc2c1=O | 4.8 | 3.5 | 8.1 | -12.5 | -2.6 | 4.5 | 6117
COc1ccc(NC(=O)C2(c3ccc(NC(=O)c4ccc(OC)cc4)cc3)CCCC2)cc1 | 6.8 | 9.3 | -0.7 | -21.2 | 1.0 | 8.1 | 2175
COc1ccc2nc(-n3c(O)c(C4=c5ccccc5=NC4=O)[nH]c3=S)sc2c1 | -1.6 | 18.2 | 6.1 | -9.9 | 6.2 | 28.2 | 7176
CC1CCCCN1C(=O)COC(=O)Cc1c[nH]c2ccccc12 (configuration not stated) | 0.2 | 10.9 | 5.2 | -15.9 | nt | 0.2 | 4003

A run of entries from further up, for reference:
SMILES | Sa RN4220 lethal | Mtb hypoxia rep | Mtb hypoxia rep growth | PrP 5UTR inh | BJeLR viability | ugtP null kill | Bead autofluor
CCCC(C)C(=O)Nc1nc(C)c(-c2csc(Nc3ccccc3OC)n2)s1 (configuration not stated) | -1.2 | 7.3 | 10.5 | 3.6 | -2.2 | 2.5 | 3898
Cc1csc(NC(=O)C(C)Oc2ccc(Br)cc2)n1 (configuration not stated) | -0.4 | 7.1 | 9.3 | -1.5 | 0.6 | 7.8 | 6853
COc1ccc(C2=NN(C(=O)CSc3nc4ccccc4s3)C(c3ccc(F)cc3)C2)cc1 (configuration not stated) | 2.8 | -11.8 | -13.3 | -38.4 | -7.2 | 1.6 | 2429
CN(Cc1ccccc1)S(=O)(=O)c1ccc2c(c1)n(C)c(=O)c(=O)n2C | 1.1 | 2.2 | -5.9 | -20.2 | 6.4 | 5.1 | 4841
CCCCn1c(SCC(=O)Nc2nccs2)nc2ccccc2c1=O | 4.8 | 3.5 | 8.1 | -12.5 | -2.6 | 4.5 | 6117
